Compound activity from PubChem BioAssay.
DUX4 inh – DUX4-mediated transcription inhibition; AID 1224904; activity change, negative = inhibition, % (concentration not given with the values); 293T-iDUX4 ZSCAN4-Gaussia luciferase reporter, 24 h; hits give low values; 37,000 compounds, 0.8% hits;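 active = -10% or lower and over 25 points stronger than a control reporter; inconclusive = -10% or lower with a smaller gap; inactive = above -10%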;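 note: 0% = median of neutral control wells and -100% = median of positive control wells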
DUX4 inh difference – also measured in DUX4 inh; calls as there; Gaussia minus Italica difference, %; measured here: selective DUX4 reporter inhibition;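 worked out from the two reporters; negative = selective loss of the DUX4 reporter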
DUX4 inh control – recorded beside DUX4 inh, whose call it bears; activity change, negative = inhibition, %; measured here: Italica tet-on control reporter;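 0 = neutral control and -100 = positive control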
* marks the source's active call; other numbers are inactive results; ? = inconclusive; . = no result given. The list is partial; rates above refer to the full screens.

SMILES	DUX4 inh	DUX4 inh difference	DUX4 inh control
Cn1cnc(S(=O)(=O)N2CC[C@@H]3[C@H](CO)Nc4ccc(-c5ccccc5F)cc4[C@@H]32)c1	15	16	-0.3
O=C(C[C@H]1CC[C@H](NC(=O)NC2CCCCC2)[C@H](CO)O1)NCc1ccccc1	3	4	-0.9
CCC(=O)N1[C@H](CO)[C@@H](c2ccccc2-c2ccccc2)[C@@H]1C#N	4	4	0.2
CN(C)C(=O)c1ccc(-c2ccc([C@@H]3[C@@H](CO)N4C(=O)CN(C(=O)C5CC5)C[C@H]34)cc2)cc1	10	0	9.9
C[C@H]1CN([C@@H](C)CO)S(=O)(=O)c2ccc(/C=C/c3ccccc3)cc2O[C@H]1CN(C)C(=O)NC1CCCCC1	-7	-4	-3.3
COC(=O)N(C)C[C@H]1OCc2cnnn2CCCC(=O)N([C@@H](C)CO)C[C@H]1C	1	-5	6.3
C[C@H](CO)N1C[C@H](C)[C@H](CN(C)C(=O)[C@@H](Cc2ccccc2)N(C)C)OCc2ccccc2-c2ccccc2C1=O	1	2	-1.6
COc1ccc(CN2[C@@H](CO)[C@@H]3c4ccccc4N(C(=O)Nc4ccc(F)cc4)C[C@@H]32)cc1	-1	-2	1.0
C[C@@H]1CN([C@H](C)CO)C(=O)c2cccc(NC(=O)c3cnccn3)c2O[C@@H]1CN(C)C(=O)NC1CCCCC1	3	0	3.7
CO[C@H](CN(C)Cc1cc(F)ccc1F)[C@@H](C)CN(C(=O)Nc1ccc(C(F)(F)F)cc1)[C@H](C)CO	-3	2	-5.4
O=C1CNC[C@@H]2[C@H](c3ccc(-c4ccccc4F)cc3)[C@@H](CO)N12	14	9	5.0
Cc1ccccc1S(=O)(=O)Nc1ccc2c(c1)C(=O)N(C)[C@@H]1CC[C@@H](CC(=O)O)O[C@@H]1CO2	-3	-2	-0.8
C[C@H](CO)N1C[C@H](C)[C@H](CN(C)Cc2ccc(C(=O)Nc3ccccc3N)cc2)OCc2cn(nn2)CCCC1=O	?	.	.
C[C@H]1CN([C@@H](C)CO)C(=O)c2cc(C3=CCCCC3)cnc2O[C@H]1CN(C)CC1CCOCC1	-1	-5	3.4
COCC(=O)N1C[C@@H](C)[C@@H](OC)CN(C)C(=O)c2cc(NC(=O)c3cnccn3)ccc2OC[C@H]1C	9	3	5.5
CCNC(=O)[C@@H]1[C@@H](CO)[C@@H]2Cn3c(cccc3=O)[C@H]1N2CCC(F)(F)F	3	-8	11
CN1c2ccc(Br)cc2[C@H]2[C@H](CCN2S(=O)(=O)c2cccc(F)c2)[C@@H]1CO	0	-4	3.5
COc1cc(CN2CC3(CN(C(=O)c4ccc5c(c4)OCO5)C3)c3c(n(C)c4cc(OC)ccc34)[C@@H]2CO)cc(OC)c1	?	.	.
COc1ccc(CN2C[C@@H](C)[C@H](OC)CN(C)C(=O)c3cc(NC(=O)C4CC4)ccc3OC[C@H]2C)cc1	4	1	2.5
CCCNC(=O)N1CC2(C1)[C@H](c1ccccc1)[C@@H](CO)N2C(=O)C1CCC1	-9	7	-16
C[C@H](CO)N1C[C@H](C)[C@H](CN(C)S(=O)(=O)c2cccs2)Oc2c(NS(=O)(=O)c3ccc(F)cc3)cccc2C1=O	0	-3	2.6
O=C(CC1CC1)N1CC(=O)N2[C@@H](CO)[C@H](c3ccc(-c4cccnc4)cc3)[C@@H]2C1	11	6	4.5
COc1ccc(NC(=O)N[C@H]2CC[C@@H](CCNC(=O)c3ccccc3F)O[C@H]2CO)cc1	4	1	3.2
CN1C[C@H]2[C@@H](c3ccccc31)[C@@H](CO)N2C(=O)C1CCCCC1	-1	-2	1.3
Cc1ccccc1S(=O)(=O)N[C@H]1CC[C@H](CCn2cc(-c3ccc(F)cc3)nn2)O[C@H]1CO	-5	-1	-4.0
CCC(=O)N(C)C[C@H]1[C@@H](c2ccc(-c3ccc(F)cc3)cc2)[C@@H](CO)N1C(C)=O	-4	-3	-1.0
C[C@H](CO)N1C[C@H](C)[C@@H](CN(C)S(=O)(=O)c2cn(C)cn2)OCc2cn(nn2)CCCC1=O	2	-1	3.1
COc1ccc(NC(=O)Nc2cccc3c2O[C@H](CN(C)S(=O)(=O)c2cccs2)[C@H](C)CN([C@H](C)CO)C3=O)cc1	-4	-5	1.0
O=S(=O)(c1ccccc1)N1CC2(C1)[C@H](c1ccccc1)[C@H](CO)N2CC1CCOCC1	-9	-4	-5.3
CC(C)NC(=O)N[C@H]1CC[C@H](CC(=O)NC2Cc3ccccc3C2)O[C@H]1CO	8	6	1.4
C[C@@H](NC(=O)C[C@@H]1CC[C@H]2[C@@H](COC[C@@H](O)CN2C)O1)c1ccccc1	8	8	-0.3
O=C(NC1CCCCC1)[C@H]1[C@H](CO)[C@H]2Cn3c(cccc3=O)[C@H]2N1CC1CCOCC1	-2	-15	13
C[C@@H](NC(=O)C[C@H]1C=C[C@H](NC(=O)c2cccnc2)[C@@H](CO)O1)c1ccccc1	-5	-7	2.2
C[C@H](CO)N1C[C@H](C)[C@@H](CN(C)C(=O)C2CCOCC2)Oc2ncc(C#CC(C)(C)O)cc2C1=O	0	-3	2.5
COc1ccc2c3c(n(C)c2c1)[C@H](CO)N(C(=O)c1ccc(F)cc1)CC31CN(C)C1	2	5	-2.2
N#Cc1cccc(-c2ccc([C@@H]3[C@@H](CO)N4CCCCN(S(=O)(=O)c5ccccc5)C[C@@H]34)cc2)c1	-5	-7	1.5

Part of the list above in order of SMILES length, highest first:
SMILES	DUX4 inh	DUX4 inh difference	DUX4 inh control
C[C@H](CO)N1C[C@H](C)[C@H](CN(C)C(=O)[C@@H](Cc2ccccc2)N(C)C)OCc2ccccc2-c2ccccc2C1=O	1	2	-1.6
N#Cc1cccc(-c2ccc([C@@H]3[C@@H](CO)N4CCCCN(S(=O)(=O)c5ccccc5)C[C@@H]34)cc2)c1	-5	-7	1.5
COc1ccc(CN2C[C@@H](C)[C@H](OC)CN(C)C(=O)c3cc(NC(=O)C4CC4)ccc3OC[C@H]2C)cc1	4	1	2.5
C[C@H](CO)N1C[C@H](C)[C@@H](CN(C)S(=O)(=O)c2cn(C)cn2)OCc2cn(nn2)CCCC1=O	2	-1	3.1
C[C@@H](NC(=O)C[C@H]1C=C[C@H](NC(=O)c2cccnc2)[C@@H](CO)O1)c1ccccc1	-5	-7	2.2
C[C@@H](NC(=O)C[C@@H]1CC[C@H]2[C@@H](COC[C@@H](O)CN2C)O1)c1ccccc1	8	8	-0.3
O=S(=O)(c1ccccc1)N1CC2(C1)[C@H](c1ccccc1)[C@H](CO)N2CC1CCOCC1	-9	-4	-5.3
COc1ccc2c3c(n(C)c2c1)[C@H](CO)N(C(=O)c1ccc(F)cc1)CC31CN(C)C1	2	5	-2.2
COC(=O)N(C)C[C@H]1OCc2cnnn2CCCC(=O)N([C@@H](C)CO)C[C@H]1C	1	-5	6.3
CC(C)NC(=O)N[C@H]1CC[C@H](CC(=O)NC2Cc3ccccc3C2)O[C@H]1CO	8	6	1.4
CN1C[C@H]2[C@@H](c3ccccc31)[C@@H](CO)N2C(=O)C1CCCCC1	-1	-2	1.3

(cont.)
SMILES	DUX4 inh	DUX4 inh difference	DUX4 inh control
COc1ccc(NC(=O)N(C)C[C@H]2Oc3ccc(NC(=O)CCN4CCOCC4)cc3C(=O)N([C@H](C)CO)C[C@@H]2C)cc1	5	7	-2.1
CO[C@H]1CN(C)C(=O)c2cc(NC(=O)C3CC3)ccc2OC[C@H](C)N(CC2CC2)C[C@@H]1C	3	-1	4.0
C[C@H]1CN([C@@H](C)CO)C(=O)Cc2cc(NS(=O)(=O)c3cccs3)ccc2O[C@H]1CN(C)CC1CCCCC1	-5	4	-9.2
C[C@H](CO)N1C[C@H](C)[C@@H](CN(C)S(=O)(=O)c2ccc(Cl)cc2)Oc2ccc(NC(=O)c3ccncc3)cc2C1=O	3	6	-3.2
C[C@@H]1CCCCO[C@@H](CN(C)S(=O)(=O)c2cn(C)cn2)[C@H](C)CN([C@@H](C)CO)C(=O)c2cc(NC(=O)Nc3ccc(C(F)(F)F)cc3)ccc2O1	-1	-3	2.6
C[C@H](C(=O)N(C)C[C@@H]1OCc2ccccc2-c2c(n(C)c3ccccc23)C(=O)N([C@@H](C)CO)C[C@@H]1C)c1ccccc1	?	.	.
C[C@@H]1CN([C@@H](C)CO)C(=O)c2cccc(NS(C)(=O)=O)c2O[C@@H]1CN(C)Cc1ccc(-c2ccccc2)cc1	-1	0	-0.9
COc1ccc2c3c(n(C)c2c1)[C@@H](CO)N(Cc1nccs1)CC31CCN(C(=O)CN(C)C)CC1	12	-5	17
CC1C=NC(S(=O)(=O)N2CC[C@H]3[C@@H](CO)N(C)c4ccc(C5=CCCCC5)cc4[C@H]32)=N1 (stereo partly specified)	28	24	3.4
C[C@@H](O)C#Cc1ccc([C@H]2[C@@H](CO)N3CCCCN(C(=O)c4ccncc4)C[C@H]23)cc1	22	23	-1.8
N#Cc1cccc(-c2ccc([C@@H]3[C@H](CO)N4CCCCN(C(=O)Nc5cccc(F)c5)C[C@@H]34)cc2)c1	?	.	.
CC(=O)N1[C@@H]2CN(S(=O)(=O)c3ccc(F)cc3)c3ccccc3[C@@H]2[C@@H]1CO	6	1	5.0
CN1[C@@H]2Cn3c(ccc(-c4ccc(F)cc4)c3=O)[C@H]1[C@@H](C(=O)NC1CCC1)[C@@H]2CO	-3	-6	3.5
O=C(C[C@@H]1CC[C@@H](NC(=O)c2ccc(F)cc2)[C@H](CO)O1)NCCc1ccccc1	1	-3	4.1
COCC(=O)Nc1ccc2c(c1)C(=O)N(C)C[C@@H](OC)[C@@H](C)CN(Cc1cccc(F)c1)[C@H](C)CO2	-6	-6	-0.1
COc1ccc(S(=O)(=O)N(C)C[C@H]2Oc3cc(-c4ccccc4OC)ccc3S(=O)(=O)N([C@H](C)CO)C[C@H]2C)cc1	9	4	4.5
O=C(C[C@@H]1C=C[C@H](NC(=O)NC2CCCCC2)[C@H](CO)O1)NCc1ccc(F)cc1	4	5	-1.0
COc1ccc(NC(=O)N(C)C[C@H]2OCCCC[C@@H](C)Oc3ccc(NC(=O)CCCN(C)C)cc3C(=O)N([C@H](C)CO)C[C@@H]2C)cc1	0	2	-2.6
COc1ccccc1-c1ccc([C@H]2[C@@H](CO)N3CCCCN(Cc4ccncc4)C[C@H]23)cc1	?	.	.
O=C(C[C@H]1C[C@H]2c3cc(NC(=O)C4CCC4)ccc3O[C@H]2[C@@H](CO)O1)NCc1ccccn1	5	5	-0.3
COc1ccc2c3c(n(C)c2c1)[C@H](CO)N(C)CC31CN(S(=O)(=O)c2cccs2)C1	19	15	4.8
O=C(Nc1ccc(F)cc1)N1C[C@@H]2[C@H](c3ccccc31)[C@H](CO)N2C(=O)c1ccncc1	2	3	-1.8
O=C(C[C@H]1C[C@@H]2c3cc(NS(=O)(=O)c4ccc(F)cc4)ccc3O[C@@H]2[C@@H](CO)O1)NC1CCCCC1	-7	-5	-2.7
CCN1[C@@H]2c3ccc(-c4ccccc4F)c(=O)n3C[C@@H]2[C@@H](CO)[C@@H]1C(=O)NC1CCCC1	1	4	-3.2
O=C(NCCN1CCCCC1)[C@H]1N[C@H]2c3ccc(-c4cccnc4)c(=O)n3C[C@H]2[C@@H]1CO	7	6	0.9
CO[C@@H]1CN(C)C(=O)c2ccc(NC(=O)C3CC3)cc2OC[C@H](C)N(Cc2cncnc2)C[C@@H]1C	-5	-3	-1.8
COc1cccc(NC(=O)N2[C@@H](CO)[C@H](c3ccccc3)[C@@H]2CNCC(C)C)c1	-2	-1	-0.9
CS(=O)(=O)N1CCCCN2[C@@H](CO)[C@@H](c3ccc(C4=CCCC4)cc3)[C@@H]2C1	21	10	12
C[C@@H]1CN([C@H](C)CO)C(=O)c2cc(-c3cccc(C(=O)N(C)C)c3)cnc2O[C@H]1CN(C)C(=O)Cc1ccccn1	-2	-2	0.0
CO[C@@H]1CN(C)C(=O)c2cc(NS(C)(=O)=O)ccc2OC[C@H](C)N(Cc2nccs2)C[C@H]1C	-2	-1	-1.3
CO[C@@H](CN(C)C(=O)C1CCOCC1)[C@H](C)CN(C(=O)Nc1ccc(C(F)(F)F)cc1)[C@@H](C)CO	1	-1	2.1
CN(C)CC#Cc1ccc([C@@H]2[C@@H](CO)N3CCCCN(C(=O)Nc4ccc(F)cc4)C[C@@H]23)cc1	-2	-7	4.9
CCCN1[C@@H]2c3ccc(-c4cccnc4)c(=O)n3C[C@H]1[C@H](CO)[C@H]2C(=O)NCCc1cn(C)cn1	3	-3	5.8
CC(C)NC(=O)N1[C@H](C(=O)N2CCC(Cc3ccccc3)CC2)[C@@H](CO)[C@@H]2Cn3c(cccc3=O)[C@@H]21	6	3	2.2
COc1ccc(NC(=O)N(C)C[C@@H]2OCc3ccccc3-c3ccccc3C(=O)N([C@H](C)CO)C[C@@H]2C)c(OC)c1	5	3	1.8
CC(C)NC(=O)N(C)C[C@H]1Oc2ccc(NS(=O)(=O)c3ccc(Cl)cc3)cc2C(=O)N([C@H](C)CO)C[C@@H]1C	4	2	1.9
C[C@@H]1CN([C@H](C)CO)C(=O)c2ccccc2-c2ccccc2CO[C@@H]1CN(C)C(=O)c1ccncc1	6	5	0.5
CN1[C@@H]2c3ccc(C4=CCCC4)c(=O)n3C[C@@H]2[C@@H](CO)[C@@H]1C(=O)NCc1ccccc1F	-3	-2	-1.0
COc1ccc2c3c([nH]c2c1)[C@@H](CO)N(Cc1ccccc1F)CC31CCN(C(=O)C2CC2)CC1	?	.	.
